Screening data: PubChem, several laboratories
Vif TR-FRET: inhibitors of Vif binding to APOBEC3G peptide, primary screen, biochemical, TR-FRET, GST-Vif 1-94, biotin-A3G peptide, dose response retest (AID 1117319). TR-FRET GST-Vif / biotin-A3G peptide binding; higher % means a stronger effect; test concentration not given here; strong numbers were not always called active. inhibition, %, or IC50 in µM where a hit was titrated. hit rate 0.57% among 260,000;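 active means above the screen mean plus three standard deviations and confirmed in dose response; inconclusive means results disagree or hit not tested in dose response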;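 further: Vif residues 1-94 fused to GST binding biotinylated APOBEC3G peptide 110-148; 0% = full assay without inhibitor and 100% = GST in place of GST-Vif; retest series ran down from 100 µM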
Calb FLC: affects C. albicans growth with fluconazole | C. albicans CaCi-2 (fluconazole-resistant clinical isolate) + fluconazole, Alamar Blue growth, 48 h | growth inhibition, % (no concentration beside the values) | hit rate 0.57% among 300,000 | AID 1979;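 active means most replicates above 75%; inconclusive means exactly half above 75%; inactive means most below 75%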;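 further: all wells also contain fluconazole at 8 µg/ml as a sub-toxic cotreatment; 0% = median of DMSO wells and 100% = median of geldanamycin control wells; wells of about 8 µL received 7.5 nL stock; the first replicate is given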
A1 inh: inhibitors of the anti-apoptotic protein A1, read as caspase activation; MEF A1-2A-BIM cells, Caspase-Glo 3/7 luminescence, 3 h; percent of clofoctol response, vehicle zero; caspase activation, % (no concentration beside the values); hit rate 0.066% among 330,000;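 active means over half of replicate activation scores above 10%, or exactly half above 10 with the replicate mean above 10; inconclusive means replicate mean below 10 yet half the replicates above 10; inactive means over half of replicates below 10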;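 further: wells of about 30 µL received 50 nL stock; many hits fall short of the cut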
AF4-AF9 inh: blocks AF4 peptide binding to human AF9; P42568; AlphaScreen, biotin-AF4 peptide binding to FLAG-AF9; inhibition, % at 10 µM; hit rate 0.47% among 350,000; AID 651704;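 active means every replicate reaching a set inhibition limit, whatever the replicate mean, cut at about 25% in these data; inconclusive means mean inhibition reaches that limit but some replicates miss it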;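 further: 0% = plate neutral control median and 100% = total signal loss; the record names both 10 and 1 µM as test concentration; the first replicate is given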
Target sequence (P42568 whole entry, looked up): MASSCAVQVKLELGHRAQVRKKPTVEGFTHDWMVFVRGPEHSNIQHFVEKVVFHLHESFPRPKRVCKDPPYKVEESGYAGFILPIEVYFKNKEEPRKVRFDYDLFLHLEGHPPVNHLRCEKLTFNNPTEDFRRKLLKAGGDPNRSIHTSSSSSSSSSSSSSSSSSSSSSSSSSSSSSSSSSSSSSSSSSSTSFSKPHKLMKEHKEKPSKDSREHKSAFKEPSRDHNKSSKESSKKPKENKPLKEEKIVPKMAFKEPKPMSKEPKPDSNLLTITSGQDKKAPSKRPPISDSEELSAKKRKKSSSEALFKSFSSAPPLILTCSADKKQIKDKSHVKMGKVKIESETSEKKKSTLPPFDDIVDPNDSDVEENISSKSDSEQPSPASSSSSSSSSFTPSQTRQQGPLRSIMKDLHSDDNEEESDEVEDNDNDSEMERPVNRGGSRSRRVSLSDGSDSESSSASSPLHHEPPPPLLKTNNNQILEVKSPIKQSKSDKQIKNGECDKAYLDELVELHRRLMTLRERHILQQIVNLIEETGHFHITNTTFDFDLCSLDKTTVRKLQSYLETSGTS
T cruzi repl: T. cruzi replication inhibition; inhibition, % (no concentration beside the values); T. cruzi beta-gal in NIH3T3, luminescence, 90 h; hit rate 1.4% among 300,000;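 active means mean inhibition across valid replicates above about 55%, limit read from the data; inconclusive means mean below that limit but half or more replicates reach it; inactive means mean below it, under half of replicates reach it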;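 further: signal also drops with host cell toxicity which is not excluded here; 0% = plate median of DMSO wells and 100% = zero luminescence signal; higher percent means less beta-gal luminescence so fewer parasites; stock transfer was 50 nL into about 50 µL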
Beta cell apopt: blocks beta cell apoptosis; INS-1E cytokine-induced death, ATP luminescence, 48 h; percent of positive-control rescue, neutral wells zero; protection from apoptosis, % (test concentration not listed); hit rate 0.8% among 300,000;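 active means all replicates at 75% or more, or half of them and the mean; inconclusive means half reach 75% but not the mean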;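 further: 0% = cytokine-treated negative control wells and 100% = positive control rescue; higher means more ATP so stronger rescue from cytokine killing; wells of about 40 µL received 100 nL stock; the first replicate is given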
RanGTP-Impb inh: inhibitors of RanGTP-importin-beta interaction, primary screen, biochemical, FRET, CFP-Ran, YFP-importin-beta, homogeneous; cell-free CFP-Ran/YFP-importin-beta FRET ratio; inhibition, % (no concentration beside the values); hit rate 1.1% among 300,000; AID 2216;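 active means most replicates above 15%; inconclusive means exactly half above 15%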;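 further: 0% = DMSO wells and 100% = Ran loaded with GDP instead of GTP; wells of about 40 µL received 100 nL stock; the first replicate is given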
rRNA inh HTS: inhibitors of bacterial rRNA selective over humanized ribosomes; hit rate 1.6% among 350,000; E. coli WT GFP vs humanized-ribosome RFP mutants, fluorescence, 24 h; hits give low values; DMSO median 0, no signal -100; AID 720706; GFP signal change (wild-type ribosome), % (no concentration beside the values);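 active means significant combined selectivity score with lowered wild-type GFP, culture density cut under 30%, mutant RFP and density less affected; inactive means any of these conditions unmet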; further: one replicate is shown; some compounds called inactive have numbers as strong as hits
rRNA inh HTS OD600: further read-out of rRNA inh HTS, marked with its call; OD600 change, %; measured here: OD600 growth;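 optical density of the mix in the first replicate; 0 = DMSO median and -100 = no signal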
rRNA inh HTS RFP: recorded beside rRNA inh HTS, whose call it bears; RFP signal change, %; measured here: RFP humanized mutant strains;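 first replicate; 0 = DMSO median and -100 = no signal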
Active calls of the source: *.

How did COc1ccc(-n2c(O)c(Cc3ccccc3)c(=O)n3nc(-c4ccccc4)c(=O)cc23)cc1 do in these assays?
Vif TR-FRET: -1%; Calb FLC: -4; A1 inh: 0.5; T cruzi repl: -12; Beta cell apopt: 3; RanGTP-Impb inh: -2.5

What do the screens show for `CCOC(=O)c1cccc(NC(=O)CSc2nnnn2CC)c1`?
Vif TR-FRET: -13%; Calb FLC: -9; A1 inh: -0.6; T cruzi repl: 3; Beta cell apopt: -9; RanGTP-Impb inh: -1.0

Results for COc1ccc(-c2csc(=Nc3c(C)n(C)n(-c4ccccc4)c3=O)n2C(C)(C)C)cc1 ?
Vif TR-FRET: -1%; Calb FLC: -9; A1 inh: 0.6; T cruzi repl: -19; Beta cell apopt: 2; RanGTP-Impb inh: 1.0

Results for CCOC(=O)COc1ccccc1/C=N/Nc1nnc2c3ccccc3n(C)c2n1 ?
Calb FLC: -1; A1 inh: -0.2; AF4-AF9 inh: -1.3; T cruzi repl: -2; RanGTP-Impb inh: 1.8; rRNA inh HTS: 1; rRNA inh HTS OD600: 5; rRNA inh HTS RFP: 0.1

What do the screens show for `O=C1OC(c2ccccc2)c2ccc3ccccc3c21` (stereo not given)?
Calb FLC: 13; A1 inh: 0.7; T cruzi repl: 15; Beta cell apopt: -2; RanGTP-Impb inh: -1.6

What do the screens show for `Cc1[nH]c2c(C)cccc2c(=O)c1Br`?
Vif TR-FRET: 2%; Calb FLC: -4; A1 inh: -0.1; T cruzi repl: 15; Beta cell apopt: 3; RanGTP-Impb inh: -3.0

What do the screens show for `CC(C)(C)c1ccc2c(c1)OC(C(=O)N/N=C/c1ccc([N+](=O)[O-])o1)CO2` (stereo not given)?
Calb FLC: 10; A1 inh: -0.3; AF4-AF9 inh: 1.1; T cruzi repl: 60*; Beta cell apopt: -5; RanGTP-Impb inh: -3.7; rRNA inh HTS: -9; rRNA inh HTS OD600: 0; rRNA inh HTS RFP: 2.4

How did COC(=O)c1ccc(C2=NOC(C)(c3sc(-c4ccc(Cl)cc4)nc3C)C2)cc1 (stereo not given) do in these assays?
Vif TR-FRET: 3%; Calb FLC: -4; A1 inh: -0.9; AF4-AF9 inh: -0.2; T cruzi repl: -3; Beta cell apopt: -4; RanGTP-Impb inh: -4.0; rRNA inh HTS: 3; rRNA inh HTS OD600: 0; rRNA inh HTS RFP: 0.3

What do the screens show for `CCN(CC)CCn1c(/N=C/c2ccc(OC)c(OC)c2)nc2ccccc21`?
Calb FLC: 6; A1 inh: 0.6; AF4-AF9 inh: 3.0; T cruzi repl: 6; RanGTP-Impb inh: -0.1; rRNA inh HTS: 13; rRNA inh HTS OD600: 5; rRNA inh HTS RFP: -1.0

What do the screens show for `COc1ccccc1C(=O)CSc1cccc[n+]1[O-]`?
Vif TR-FRET: 5%; Calb FLC: 1; A1 inh: 2.6; AF4-AF9 inh: -3.0; T cruzi repl: -23; Beta cell apopt: -5; RanGTP-Impb inh: -2.1; rRNA inh HTS: 8; rRNA inh HTS OD600: 4; rRNA inh HTS RFP: -5.5

What do the screens show for `O=C(OCc1ccc([N+](=O)[O-])cc1)c1cnc(Cl)c(Cl)c1`?
Calb FLC: -13; A1 inh: -0.2; AF4-AF9 inh: -0.2; T cruzi repl: -7; RanGTP-Impb inh: -1.8; rRNA inh HTS: -10; rRNA inh HTS OD600: 2; rRNA inh HTS RFP: -0.8

How did N#C/C(=C\c1ccccc1)C(=O)NNS(=O)(=O)c1cccc([N+](=O)[O-])c1 do in these assays?
Vif TR-FRET: 3%; A1 inh: -0.3; AF4-AF9 inh: -0.4; Beta cell apopt: 2; rRNA inh HTS: 0; rRNA inh HTS OD600: 5; rRNA inh HTS RFP: -3.8

What do the screens show for `Nc1oc2ccccc2c(=O)c1-c1ccc2c(c1)OCO2`?
Vif TR-FRET: -7%; Calb FLC: 26; A1 inh: -3.2; AF4-AF9 inh: -3.0; T cruzi repl: -14; Beta cell apopt: -1; RanGTP-Impb inh: -0.3; rRNA inh HTS: 7; rRNA inh HTS OD600: 0; rRNA inh HTS RFP: -4.4

How did O=c1oc2ccccc2c(NCc2ccccc2)c1[N+](=O)[O-] do in these assays?
Calb FLC: 27; A1 inh: -0.6; AF4-AF9 inh: 3.7; T cruzi repl: -5; Beta cell apopt: -4; RanGTP-Impb inh: -1.0; rRNA inh HTS: -21; rRNA inh HTS OD600: -14; rRNA inh HTS RFP: -6.0

What do the screens show for `CCOc1ccc(-c2n[nH]c(=S)o2)cc1`?
Vif TR-FRET: -10%; Calb FLC: 0; A1 inh: 0.1; AF4-AF9 inh: -4.3; T cruzi repl: -3; Beta cell apopt: -1; RanGTP-Impb inh: -2.4; rRNA inh HTS: -14; rRNA inh HTS OD600: 0; rRNA inh HTS RFP: -1.7

What do the screens show for `CCC(=O)Nc1ccc(C(=O)NNC(=O)c2ccc([N+](=O)[O-])cc2)cc1`?
Vif TR-FRET: 3%; Calb FLC: -8; A1 inh: 0.2; AF4-AF9 inh: 1.8; T cruzi repl: 6; Beta cell apopt: -3; RanGTP-Impb inh: 1.7; rRNA inh HTS: 1; rRNA inh HTS OD600: -2; rRNA inh HTS RFP: -2.9

How did CN(CC1CCCN(CCc2ccc(Cl)cc2)C1)C(=O)C(=O)c1ccco1 (stereo not given) do in these assays?
Vif TR-FRET: -2%; Calb FLC: -19; A1 inh: 0.3; AF4-AF9 inh: 1.5; T cruzi repl: 15; Beta cell apopt: -6; RanGTP-Impb inh: 2.9; rRNA inh HTS: 9; rRNA inh HTS OD600: 11; rRNA inh HTS RFP: -0.7

How did CCCCCC(=O)NC(=S)Nc1cccc(C(C)=O)c1 do in these assays?
Vif TR-FRET: -5%; Calb FLC: inconclusive; A1 inh: 0.5; AF4-AF9 inh: -1.7; T cruzi repl: 12; Beta cell apopt: -1; RanGTP-Impb inh: inconclusive; rRNA inh HTS: -13; rRNA inh HTS OD600: -17; rRNA inh HTS RFP: 0.9

Results for CCCCN=C1NC(=O)C(CC(=O)NCCc2ccc(OC)cc2)S1 (stereo not given) ?
Vif TR-FRET: 22%; Calb FLC: -21; A1 inh: 0.0; AF4-AF9 inh: -1.7; T cruzi repl: -12; Beta cell apopt: -1; RanGTP-Impb inh: -0.3; rRNA inh HTS: 5; rRNA inh HTS OD600: 4; rRNA inh HTS RFP: -1.1

How did Cc1ccc(C(=O)CSc2nnc(-c3cccnc3)n2N)cc1 do in these assays?
Vif TR-FRET: 9%; Calb FLC: 3; A1 inh: 0.5; T cruzi repl: 4; Beta cell apopt: 3; RanGTP-Impb inh: -0.1

Results for Cc1cc([N+](=O)[O-])nn1CC(=O)N/N=C/c1ccccc1F ?
Vif TR-FRET: -6%; Calb FLC: 0; A1 inh: -0.8; T cruzi repl: -5; Beta cell apopt: 1; RanGTP-Impb inh: -0.3; rRNA inh HTS: 4; rRNA inh HTS OD600: -7; rRNA inh HTS RFP: -5.2

What do the screens show for `Cc1ccc(OC(C)C(=O)Nc2ccccc2C(=O)N2CCN(C)CC2)cc1` (stereo not given)?
Calb FLC: 0; A1 inh: -0.4; AF4-AF9 inh: 0.0; T cruzi repl: -11; Beta cell apopt: -5; RanGTP-Impb inh: -1.6; rRNA inh HTS: 13; rRNA inh HTS OD600: 6; rRNA inh HTS RFP: -0.5

What do the screens show for `CC(C)c1ccc(NC(=S)NC2CC3C=CC2C3)cc1` (stereo not given)?
Calb FLC: -3; A1 inh: -0.8; AF4-AF9 inh: 0.9; T cruzi repl: 7; Beta cell apopt: -4; RanGTP-Impb inh: -2.1; rRNA inh HTS: -37; rRNA inh HTS OD600: -67; rRNA inh HTS RFP: 0.9

Results for COC(=O)c1ccccc1S(=O)(=O)N(Cc1cc2cc3c(cc2[nH]c1=O)OCO3)C1CCCCC1 ?
Vif TR-FRET: -15%; Calb FLC: 10; A1 inh: 0.9; T cruzi repl: 18; Beta cell apopt: -1; RanGTP-Impb inh: 2.6

What do the screens show for `Cn1c(CNc2ccccc2)nc2ccccc21`?
Vif TR-FRET: 0%; Calb FLC: 3; A1 inh: -0.6; T cruzi repl: -24; Beta cell apopt: 0; RanGTP-Impb inh: -1.2

How did CC(C)(C)c1ccc(C(=O)NNC(=O)c2ccc(Cl)cc2)cc1 do in these assays?
Vif TR-FRET: 0%; Calb FLC: 1; A1 inh: 0.0; AF4-AF9 inh: -16; T cruzi repl: -14; Beta cell apopt: -9; RanGTP-Impb inh: -2.1; rRNA inh HTS: 6; rRNA inh HTS OD600: -1; rRNA inh HTS RFP: -6.8

What do the screens show for `COc1cc(C(C)=O)ccc1OCC(O)CN1CCN(c2ccccc2)CC1` (stereo not given)?
Calb FLC: 3; A1 inh: 0.5; AF4-AF9 inh: 1.1; T cruzi repl: -25; Beta cell apopt: 4; RanGTP-Impb inh: -1.7; rRNA inh HTS: -1; rRNA inh HTS OD600: 3; rRNA inh HTS RFP: -3.0

How did Cc1noc(C(=O)Nc2c(C)nn(Cc3ccccc3)c2C)c1Cl do in these assays?
Vif TR-FRET: -1%; Calb FLC: -3; A1 inh: 0.3; AF4-AF9 inh: -1.6; T cruzi repl: 1; Beta cell apopt: 3; RanGTP-Impb inh: 5.0; rRNA inh HTS: 6; rRNA inh HTS OD600: 2; rRNA inh HTS RFP: 4.8

How did Cc1cc(-c2ccc(S(=O)(=O)N3CCN(C)CC3)s2)on1 do in these assays?
Calb FLC: 3; A1 inh: 0.9; AF4-AF9 inh: -0.5; T cruzi repl: -11; Beta cell apopt: -11; RanGTP-Impb inh: 3.9; rRNA inh HTS: 7; rRNA inh HTS OD600: 7; rRNA inh HTS RFP: -2.8

What do the screens show for `Cc1nc(-c2ccccc2)sc1-c1nc(-c2ccccc2)ncc1S(=O)(=O)c1ccccc1`?
Vif TR-FRET: -88%; Calb FLC: -1; A1 inh: 0.8; T cruzi repl: 28; Beta cell apopt: 6; RanGTP-Impb inh: -2.8

Results for CCCCOc1ccc(NC(=O)C2OC3OC(C)(C)OC3C3OC(C)(C)OC23)cc1 (stereo not given) ?
Calb FLC: -18; A1 inh: -0.4; T cruzi repl: -17; Beta cell apopt: -4; RanGTP-Impb inh: 5.9

What do the screens show for `O=C(CCCC(=O)NCc1ccc(F)cc1)NCc1ccc(F)cc1`?
Vif TR-FRET: 9%; Calb FLC: 17; A1 inh: -0.8; AF4-AF9 inh: -1.4; T cruzi repl: -14; Beta cell apopt: -4; RanGTP-Impb inh: 0.4; rRNA inh HTS: 8; rRNA inh HTS OD600: 9; rRNA inh HTS RFP: 0.8

These rows are one share of the data, so the mix of outcomes need not match the whole.
